Screening data from PubChem BioAssay.
Lassa entry inh – inhibitors of Lassa virus binding or cell entry; Lassa virus pseudotype entry inhibition, cell reporter; control for the full effect not named in the record; Potency, µM (series often up to 37.9 µM), for the others: at the highest dose activity change, negative = inhibition, hits mostly inhibitors; actives 1.2% (n = 300,000); active means well fitted inhibition curve with a large enough effect; inconclusive means small, poorly fitted or top-dose-only effect, or effect the other way; inactive means flat fitted curve, though single readings scatter; tested in HEK293 cells; further: on the % scale 0 is the no-effect control and ±100 the full control effect; nearly all actives have a fitted effect of over 50% in size; luciferase read-out
Cruzain noTriton – blocks cruzain activity in detergent-free assay; purified cruzain, Z-FR-AMC fluorescence, no detergent; actives 2.3% (n = 200,000); P25779; Potency, µM, inactives show max response, negative = inhibition, most hits filed as inhibitors;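 further: plate controls were enzyme without inhibitor for no effect and buffer without enzyme for full effect; nearly all actives have a fitted effect of over 40% in size; top concentration of the series not given in the record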
Target sequence (P25779 123-467 limits assumed): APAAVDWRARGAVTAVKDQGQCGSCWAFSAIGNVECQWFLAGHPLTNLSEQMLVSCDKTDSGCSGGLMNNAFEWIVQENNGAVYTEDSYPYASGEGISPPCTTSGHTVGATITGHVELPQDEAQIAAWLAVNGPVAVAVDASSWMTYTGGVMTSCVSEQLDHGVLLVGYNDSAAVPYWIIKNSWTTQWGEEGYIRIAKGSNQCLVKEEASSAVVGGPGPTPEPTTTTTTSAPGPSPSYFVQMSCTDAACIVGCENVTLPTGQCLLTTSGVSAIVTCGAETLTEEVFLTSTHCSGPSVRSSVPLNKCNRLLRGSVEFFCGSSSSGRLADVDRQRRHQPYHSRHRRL
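Detergent-free condition (0.00005% Triton X-100) in acetate buffer pH 5.5 with DTT. 1.5 nM enzyme and compound were pre-mixed 15 min, then 2 uM Z-FR-AMC substrate added; reaction progress from fluorescence change between first and third reads (60 s).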
Marburg entry inh – inhibitors of Marburg virus binding or cell entry. Marburg virus pseudotyped entry inhibition, cell reporter; control for the full effect not named in the record; about a third of the inactives were read at about 46 µM. Potency, µM (top dose mostly 37.8 µM), for inactives: top-dose activity change, negative = inhibition, actives largely listed as inhibitors. actives 1.8% (n = 300,000). AID 540276; active = well fitted inhibition curve with a large enough effect; inconclusive = small, poorly fitted or top-dose-only effect, or effect the other way; inactive = flat fitted curve, though single readings scatter; tested in HEK293 cells; about a fifth of its hits are not listed in these tables; further: on the % scale 0 is the no-effect control and ±100 the full control effect; luciferase read-out
StopGo reporter – lowers the luciferase signal of an FMDV 2A StopGo reporter | human cells with a luciferase reporter of 2A StopGo recoding; control for the full effect not named in the record | Potency, µM (titrated, usually from 57.9 µM), inactives show at the top dose signal change, negative = less light | actives 1.2% (n = 410,000); active = well fitted falling curve with a large enough effect; inconclusive = small, poorly fitted or top-dose-only effect; inactive = no such curve, though single readings can be large or run the other way; tested in HEK293T cells; further: on the % scale 0 is the no-effect control and ±100 the full control effect; nearly all actives have a fitted effect of over 45% in size; luciferase light after 4 h
SARS PLP yeast – blocks SARS-CoV papain-like protease in a yeast assay | actives 0.19% (n = 330,000) | S. cerevisiae expressing SARS-CoV PLpro, growth rescue; control for the full effect not named in the record | Potency, µM (top dose mostly 32.9 µM), for inactives: at the highest dose activity, positive = growth rescue; active means well fitted rising curve with a large enough effect; inconclusive means small, poorly fitted or top-dose-only effect; inactive means no such curve, though single readings can be large or run the other way; further: 0% is about no effect; nearly all actives have a fitted effect of over 55% in size; growth read by luminescence after 48 h
RE007 growth inh – less growth of the S. pombe RE007 Vpr strain | S. pombe RE007 Vpr strain, BacTiter-Glo ATP luminescence, 24 h; control for the full effect not named in the record | AID 651644 | actives 0.21% (n = 360,000) | Potency, µM (doses to about 92.2 µM), for the others: top-dose activity change, negative = less growth; active = well fitted falling curve with a large enough effect; inconclusive = small, poorly fitted or top-dose-only effect; inactive = no such curve, though single readings can be large or run the other way;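 further: on the % scale 0 is the no-effect control and ±100 the full control effect; nearly all actives have a fitted effect of over 50% in size; the assay follows cell death caused by Vpr and the record does not say whether a fall means rescue or toxicity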
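Fission yeast strain RE007, carrying one chromosomally integrated HIV-1 vpr copy, was seeded at OD 0.01 in PMG+AL medium with 23 nL pinned compound. After 24 h at 30 °C and 99% humidity, viability was read by BacTiter-Glo luminescence.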
Cruzain Triton – inhibitors of Trypanosoma cruzi cruzain with detergent. P25779. purified cruzain, Z-FR-AMC fluorescence, 0.01% Triton. Potency, µM, without a hit: max response, negative = inhibition, actives largely listed as inhibitors. actives 0.43% (n = 200,000). AID 1478;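 further: plate controls were neutral wells for no effect and buffer without enzyme for full effect; nearly all actives have a fitted effect of over 40% in size; top concentration of the series not given in the record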
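Detergent-containing arm of a paired screen for aggregation-based inhibition: 0.01% Triton X-100 present. Cruzain at 1.5 nM cleaved 2 uM Z-FR-AMC at pH 5.5 with 5 mM DTT; AMC fluorescence gain over 60 s measured activity.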
NS1 function inh – blocks influenza NS1 protein function; S. cerevisiae slowed by influenza A NS1, growth recovery by OD600; Potency, µM (series often up to 46.1 µM), without a hit: at the top dose activity, positive = more growth; actives 0.4% (n = 270,000); AID 2326; active means well fitted rising curve with a large enough effect; inconclusive means small, poorly fitted or top-dose-only effect; inactive means no such curve, though single readings can be large or run the other way; further: nearly all actives have a fitted effect of over 50% in size
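Compounds were scored for reversing the slow growth caused by influenza A NS1 in S. cerevisiae, measured by optical density at 600 nm. Assay medium contained 2% galactose at pH 6.0; NS1-free yeast of the same strain were the positive control.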
* marks the source's active call; other numbers are inactive results; ? = inconclusive; nt = no result given; [ ] = dose if it differs, or a comment. Unless noted, the call rests on the fitted dose curve; in most records, active means well fitted curve in the direction sought with a large enough effect; inconclusive means small, poorly fitted or top-dose-only effect, or another doubt; inactive means no such curve, though single readings can be large; an effect the other way counts as inactive or inconclusive. Potency means the concentration at half of the fitted maximal effect.

Fields: NS1 function inh | Cruzain noTriton | SARS PLP yeast | Marburg entry inh | RE007 growth inh | Lassa entry inh | Cruzain Triton | StopGo reporter
(1) Cc1cc(-c2ccc(S(=O)(=O)Nc3cc(Cl)ccc3C)s2)on1
    nt | -15% | nt | nt | nt | -10%[46.1 µM] | -13% | 12%
(2) CCc1ccc(-n2c(C)nc3cc(C(=O)NCc4cccnc4)ccc32)cc1
    nt | nt | 1% | 1%[46.1 µM] | -4% | nt | nt | 7%
(3) Cc1ccc(S(=O)(=O)NCc2ccc(C(=O)N(C)CCC#N)cc2)cc1
    12% | -6% | 1% | 6% | 12% | -6% | 2.3% | 2%
(4) O=C(NCCc1ccc(Cl)cc1Cl)c1ccc2nc[nH]c2c1
    -5% | nt | -3% | 0%[46.1 µM] | -11% | 21%[46.1 µM] | nt | -4%
(5) CC(=O)Nc1ccc(OC(=O)c2ccc(Br)c([N+](=O)[O-])c2)cc1
    -8% | nt | -3% | ? | 24% | -16% | nt | -14%
(6) COc1ccccc1-n1c(C)nnc1SCC(=O)Nc1cccc(C(C)=O)c1
    -1% | -1% | -2% | -19% | -1% | 15% | -8.1% | -10%
(7) O=C(c1cccc(Cl)c1)N1CCN(Cc2ccccc2)CC1
    1% | nt | -2% | nt | 0% | nt | nt | 7%
(8) O=C(Nc1cccc(NC(=O)c2cccs2)c1)c1ccc2c(c1)OCO2
    -12% | nt | -2% | ? | 3% | nt | nt | 29%
(9) Cc1ccc2nc(NC(=O)C3CCN(S(=O)(=O)c4ccc5c(c4)oc(=O)n5C)CC3)sc2c1
    -3% | ? | -3% | 3% | -1% | nt | -1.8% | 13µM*
(10) O=C(CS(=O)(=O)c1ccc(F)cc1)NCCS(=O)(=O)c1ccccc1
    5% | nt | 0% | nt | 2% | nt | nt | -7%
(11) Cc1ccc2c(c1)C(c1ccccc1)NCC(=O)N2 (configuration not stated)
    -3% | 2% | -6% | 0% | -4% | 0% | 0.8% | -17%
(12) c1ccc2c(CSc3nnc(-c4ccncc4)o3)cccc2c1
    -112% | 20% | -17% | 5% | -17% | ? | -9.3% | 10%
(13) CCOC(=O)N1CCN(c2nc(-c3ccc(OC)cc3)no2)CC1
    -14% | 0% | 2% | 9% | -4% | -6% | 2.0% | 3%
(14) C=CCCC(=O)Nc1ccc(COC(=O)N2CCOCC2)cc1
    -4% | 6% | -1% | 26% | -8% | 5% | -2.5% | nt
(15) Cc1ccc(C(=O)OCc2cc(=O)n3nc(CC(C)C)sc3n2)cc1
    nt | 0% | nt | nt | nt | 22%[46.1 µM] | 8.4% | -24%
(16) COc1ccc(C(=O)N/C(=C\c2cn(C)c3ccccc23)C(=O)NCCN2CCOCC2)cc1OC
    -8% | nt | 8% | nt | 15% | nt | nt | -2%
(17) CC(C)N(C(=O)COC(=O)c1ccccc1C(=O)c1ccc(Cl)c([N+](=O)[O-])c1)C(C)C
    nt | nt | -1% | ? | 5% | ? | nt | ?
(18) COc1ccc(N2CCN(C(=O)COC(=O)c3cccc(S(=O)(=O)Nc4cccc(C)c4)c3)CC2)cc1
    nt | nt | -3% | ? | 20% | ? | nt | -4%
(19) COC(=O)c1cccc(N(C(=O)c2cnccn2)C(C(=O)NCc2ccccc2)c2ccco2)c1 (configuration not stated)
    -9% | 11% | 2% | ? | 13% | 6% | -1.3% | nt
(20) CCOc1ccc(NC(=O)CSC2=NCCN2)cc1
    -9% | -7% | -16% | 29% | -22% | 1% | 0.0% | -18%
(21) O=C1OC(Nc2ccccn2)c2ccccc21 (configuration not stated)
    7% | -9% | 0% | 17% | -6% | 4% | 0.3% | -10%
(22) Cc1ccccc1-n1cc(CNC(=O)CC2C(=O)NCCN2C/C=C/c2ccccc2)cn1 (configuration not stated)
    -2% | nt | 2% | 10%[46.1 µM] | 6% | ? | nt | -9%
(23) CN(c1ccccc1)S(=O)(=O)c1ccc2[nH]c(=O)oc2c1
    ? | nt | 1% | -4%[46.1 µM] | 4% | 7% | nt | 3%
(24) COc1ccc(CCC(=O)NCCc2csc(-c3ccc(C(F)(F)F)cc3)n2)cc1
    nt | 13% | nt | nt | nt | -25%[46.1 µM] | -0.2% | -6%
(25) CC1CCN(CCOc2ccc(C(=O)c3ccccc3)cc2)CC1
    16% | nt | -3% | ? | 3% | -27% | nt | -21%
(26) Nc1ccc(O)c(-c2nc3ccccc3s2)c1
    -50% | 3.2µM* | -5% | 23% | -14% | ? | -24% | 35%[activator]
(27) Cc1cc(=O)n2nc(N3CCCC3C(=O)Nc3cccc(F)c3)sc2n1 (configuration not stated)
    6% | nt | -3% | nt | -8% | nt | nt | 0%
(28) COc1cc(/C=C2\SC(=S)N(Nc3ncc(C(F)(F)F)cc3Cl)C2=O)ccc1O
    4µM* | ? | -33% | ? | ? | -30% | -9.3% | 11%
(29) Nc1c2c(nc3ccccc13)CSCC2
    nt | nt | nt | ? | 26% | 10% | nt | -10%
(30) O=C(CNC(=O)c1ccc(OC(F)F)cc1)Nc1cccc(S(=O)(=O)N2CCCC2)c1
    nt | nt | 4% | -3% | -2% | 3% | nt | 12%
(31) Cc1ccc(NC(=O)CNC(=O)C2CCCCC2)nc1
    nt | nt | 9% | -2%[46.1 µM] | -9% | 4% | nt | 3%
(32) CCNc1nc(NCC)n2c(SC(C)C(=O)c3ccc(C)cc3)nnc2n1 (configuration not stated)
    4% | 13% | 15% | 12µM* | 5% | -14% | 1.7% | ?
(33) CC1Oc2ccccc2N(CC(=O)N2CCCCC2)C1=O (configuration not stated)
    10µM* | nt | 2% | 0%[46.1 µM] | -16% | 4% | nt | 14%
(34) COc1ccc(C)cc1NC(=O)CSc1nnc(-c2ccc(C)cc2)o1
    -6% | -4% | -5% | nt | -4% | nt | -3.6% | -29%
(35) Cc1ccc(S(=O)(=O)N2CCCC(C(=O)N3CCN(C)CC3)C2)cc1 (configuration not stated)
    5% | nt | -4% | 8% | -23% | ? | nt | -3%
(36) COc1ccc(/C=C/C(=O)O)cc1S(=O)(=O)N1CCCC1
    3% | nt | -1% | 0% | 0% | ? | nt | -7%
(37) Cn1c(NC(=O)c2ccc(Cl)cc2Cl)cc(=O)n(C)c1=O
    -2% | -7% | 1% | nt | 10% | nt | -1.1% | -20%
(38) CCN(CC)c1ccc(N2C(=O)c3ccccc3C2=O)cc1
    0% | ? | -1% | 15% | 5% | 3% | 1.1% | 41%[activator]
(39) C/C(CCc1ccccc1)=N\NC(=O)c1ccccc1[N+](=O)[O-]
    11% | 3% | -3% | 6% | 7% | 2% | -2.7% | -1%
(40) CCN1CCN(CCNC(=O)c2ccc(CS(=O)c3ccc(Br)cc3)o2)CC1 (configuration not stated)
    1% | nt | 0% | nt | 9% | nt | nt | -6%
(41) CCn1c2ccccc2c2nnc(SCc3cc(=O)n4ccsc4n3)nc21
    -4% | -14% | -8% | nt | nt | nt | -0.1% | nt
(42) C[n+]1nc(Nc2ccccc2)sc1-c1ccc(O)cc1
    -3% | nt | -3% | nt | 13% | nt | nt | -30%
(43) N#CC1=C(N)N2C(=C(C#N)C1c1ccc(Br)cc1)Nc1ccccc12 (configuration not stated)
    9% | -18% | -10% | 9.2µM* | -4% | ? | -5.6% | ?
(44) O=C1c2ccccc2C(O)N1c1cccnc1 (configuration not stated)
    -2% | -15% | 5% | nt | 12% | nt | 2.5% | -7%
(45) COc1ccccc1CC(=O)Nc1cc(C)ccn1
    2% | nt | 2% | nt | -9% | nt | nt | 75%[activator]
(46) CCc1ccc(Cn2c(CNS(=O)(=O)c3ccc([N+](=O)[O-])cc3)nc3cccnc32)cc1
    nt | -7% | nt | nt | nt | -22%[46.1 µM] | -0.4% | 59%[activator]
(47) O=C(Nc1cccnc1)c1cc(-c2ccc(Cl)cc2Cl)on1
    -2% | nt | -5% | ? | -19% | 1% | nt | 2%
(48) O=C(CCC(=O)N1CCCC1)N1CCCC1
    6% | nt | 1% | 2%[46.1 µM] | -1% | 15%[46.1 µM] | nt | 7%
(49) O=C(Cn1cnc([N+](=O)[O-])n1)N/N=C/c1ccccc1O
    -3% | 1% | 2% | ? | -5% | ? | -3.1% | 6%
(50) Oc1ccc(/C=N/NC(=S)NCc2ccco2)cc1
    -10% | -12% | -1% | 0% | 11% | ? | -12% | -3%
(51) Cc1ccc(NC(=O)c2ccc3nsnc3c2)c(Cl)c1
    -6% | nt | -1% | nt | 3% | nt | nt | 26%
(52) CC1(C)CC(=O)C2=C(C1)OC(N)=C(C#N)C2C1CC=CCC1 (configuration not stated)
    15% | -12% | -8% | 2% | -7% | -32% | -2.6% | -22%
(53) CC(C)c1nn2c(=O)cc(COC(=O)c3ccccc3NC(=O)COc3ccccc3)nc2s1
    nt | -7% | nt | nt | nt | 29%[46.1 µM] | 1.8% | 13%
(54) CCC(=O)N1CCc2cc(S(=O)(=O)NC(C(=O)NCCc3ccc(C)cc3)C(C)C)ccc21 (configuration not stated)
    nt | -13% | nt | -6%[46.1 µM] | nt | 6%[46.1 µM] | -2.5% | -2%
(55) CCOC(=O)CSc1nnc(CSc2nc(C)cc(C)n2)n1Cc1ccco1
    -3% | -2% | 2% | 22% | 10% | 0% | 2.2% | 12%
(56) O=C(Cn1c(=O)sc2ccccc21)NCCOc1ccccc1F
    -1% | -1% | -3% | ? | 9% | -28% | -1.4% | -5%
